# Env fusion inh: inhibitors of HIV Env-mediated cell fusion; HeLa-JRFL Env/CEM21 cell fusion, luciferase; inhibition, % at 12.3 µM; 360,000 tested, 1.1% active; AID 651610;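 active = mean replicate inhibition score of at least 50 and every replicate individually at or above 50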;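 also: 0% = plate neutral controls and 100% = maraviroc near 300 nM; one replicate is shown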
# eIF4H FP inh: inhibitors of RNA binding by human eIF4H; eIF4H fluorescence polarization binding assay; inhibition, % at 35 µM; Q15056; 290,000 tested, 0.94% active;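 active = 50% or more with normal probe brightness, or confirmed in later tests; about a fifth of its hits are not listed in these tables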;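 also: calls also rest on retests at 20 µM and on dose response follow-up; 0% = protein and probe with vehicle and 100% = probe without protein; strong numbers were not always called active; many hits fall short of the cut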
# PABP FP inh: blocks human PABP binding to poly(A) RNA; inhibition, % at 35 µM; 290,000 tested, 1% active; AID 2014; fluorescence polarization;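 active = 50% or more with normal probe brightness, or confirmed in later tests; about a fifth of its hits are not listed in these tables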;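 also: calls also rest on retests at 20 µM and on dose response follow-up; controls were probe without protein and protein plus probe with vehicle; some compounds called inactive have numbers as strong as hits; many hits fall short of the cut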
# Target sequence (P11940 whole entry, looked up): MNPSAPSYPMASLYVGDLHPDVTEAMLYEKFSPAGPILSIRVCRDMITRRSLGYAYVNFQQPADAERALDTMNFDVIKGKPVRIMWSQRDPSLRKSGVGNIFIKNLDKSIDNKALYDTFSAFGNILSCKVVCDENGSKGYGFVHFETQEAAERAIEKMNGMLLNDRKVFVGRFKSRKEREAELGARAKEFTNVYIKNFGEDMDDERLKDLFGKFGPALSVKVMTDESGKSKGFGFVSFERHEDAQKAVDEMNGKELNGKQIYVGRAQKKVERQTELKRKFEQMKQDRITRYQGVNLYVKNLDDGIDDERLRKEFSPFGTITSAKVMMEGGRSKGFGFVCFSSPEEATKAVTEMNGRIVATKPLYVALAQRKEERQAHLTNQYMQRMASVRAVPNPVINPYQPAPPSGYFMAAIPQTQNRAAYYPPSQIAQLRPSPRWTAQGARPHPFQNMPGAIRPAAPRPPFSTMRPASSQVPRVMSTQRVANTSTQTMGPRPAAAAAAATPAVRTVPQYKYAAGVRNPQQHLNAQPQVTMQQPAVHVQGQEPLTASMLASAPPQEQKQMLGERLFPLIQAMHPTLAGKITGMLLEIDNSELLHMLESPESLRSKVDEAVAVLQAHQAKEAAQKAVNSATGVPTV
# Rce1 inhib: blocks yeast Ras-converting enzyme; Q03530; calls only; yeast membranes, quenched prenylated peptide cleavage fluorescence; 290,000 tested, 0.27% active;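 active = fall in fluorescence gain of 50% or more versus controls, with final raw signal at or below 3038400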;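 also: plate controls were neutral control wells for no effect and wells lacking membranes for full effect; tested at 10 µM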
# Yeast UUG start: modulators of start codon recognition fidelity in yeast; S. cerevisiae UUG-firefly luciferase reporter, luminescence/redox ratio; 350,000 tested, 0.13% active; activity score, % at 18.7 µM; AID 602363;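 active = replicate mean at a twofold rise or more, about +100% in these data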;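 also: firefly luciferase made from a UUG start codon reports start codon fidelity; reporter light over untreated wells divided by growth signal over untreated wells; some hits fall short of that in this replicate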
# MT1-MMP act inh: inhibitors of human MT1-MMP activation; HT1080 RFP-PRO-GFP cells, GFP/RFP ratio fluorescence, overnight; percent of plate control window, DMSO zero; GFP/RFP ratio change, % at 20 µM; 360,000 tested, 0.061% active; AID 651647;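 active = GFP/RFP ratio change of at least 30% with cell ATP level not reduced by more than half and red fluorescence within 50% of control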; also: strong numbers were not always called active
#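 Assay system: HT1080 RFP-PRO-GFP cells | Dosing: 20 µM single dose, 1% DMSO | Incubation: Cells overnight before dosing, compound overnight, 37 °C, 5% CO2 | Evaluation: GFP/RFP fluorescence ratio | Control set: DMSO-only wells and HT1080 RFP-L50D-GFP cell wells as references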
# CSC inhib: cancer stem cell inhibition; cancer stem cell-like cells viability, luminescence; inhibition, % at 7.5 µM; 300,000 tested, 1.1% active;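 active = mean at 75% or more and at least half the replicates too; tested in HMLE shEcad cells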;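 also: 0% = median of negative and 100% = median of positive control wells; the first replicate is given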
# MT1-MMP act inh RFP: also measured in MT1-MMP act inh; calls as there; RFP signal change, %; measured here: RFP expression control read;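 0 = vehicle wells; hits needed this value within 50% of zero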
# * = called active by the depositor; i = inactive; . = no result given; & = joins results of further samples.
1: O=C(CN1C2CCCC1CC(NC(=O)C1CCCCC1)C2)NCc1ccc(F)cc1 (configuration not stated)
2: Cc1[nH]c2c(C)cccc2c1CN1CCC(CO)(Cc2ccccc2)CC1
3: O=C(NCC1CCCO1)C1CC(=O)N(c2ccc(F)c(Cl)c2)C1 (configuration not stated)
4: CN(C)c1cc(N/N=C/c2ccc(Cl)cc2)nc(N(C)C)n1
5: CNC(=O)CSc1nnnn1-c1cc(C)ccc1C
6: O=C(Nc1ccc(Cl)c(Cl)c1)Nc1ccc(Br)cc1F
7: O=C1NC2(CCCCC2)N=C1c1ccc(F)cc1
8: COc1ccc(N2CC(C(=O)N3CCN(c4ccccc4)CC3)CC2=O)cc1 (configuration not stated)
9: CCCCNc1nc(-c2ccccc2)c(C(=O)OCC)cc1C#N
10: COc1ccc(S(=O)(=O)N2CCOC2CNC(=O)C(=O)NCc2cccnc2)cc1OC (configuration not stated)
assay / entry,1,2,3,4,5,6,7,8,9,10
Env fusion inh,5.0,21.1,-20.3,-1.5,-31.2,-1.2,-17.3,-1.5,.,4.3
eIF4H FP inh,-15.7,2.1,4.3,10.0,-10.9,-5.8,-0.9,-15.6,-6.5,-6.7
PABP FP inh,15.4,-4.3,-10.4,0.6,14.8,7.9,7.5,9.9,0.9,2.8
Rce1 inhib,i,i,i,.,i,i,i,i,i,i
Yeast UUG start,4.7,-7.4,-17.0,.,-0.9,.,0.5,-18.0,-1.0,-14.5
MT1-MMP act inh,-0.9,-0.2,-2.7,-5.9,-13.0,-18.0,3.6,-0.7,-10.8,2.6
MT1-MMP act inh RFP,-9.8,5.1,3.0,-2.8,-1.6,-19.3,3.0,2.7,-18.2,4.4
CSC inhib,-3.5,2.0,-1.9,.,-6.4,92.4*,-1.0,1.4,62.5,-6.2

11: CC(=O)Nc1cccc(NC(=O)c2ccc(C(=O)Nc3cccc(NC(C)=O)c3)nc2)c1
12: CCOC(=O)N1CCN(C(=O)c2cc(COc3ccc(F)cc3F)on2)CC1
13: COc1ccc(S(=O)(=O)n2ccc(-c3cnc(-c4ccccc4)s3)n2)cc1
14: O=C(Nc1ccccn1)c1cccs1
15: CCC(CC)c1nc2ccccc2c(=O)[nH]1
16: COc1ccc(-c2csc(NC(=S)NC(=O)c3ccc4ccccc4c3)n2)cc1OC
17: Cc1nn2c(=O)c(NC(=O)c3ccc(F)cc3)cnc2s1
18: COC(=O)N1CCN(c2ccc(OC)cc2)CC1
19: Cc1ccc(C23OCCN2CCn2nc4ccccc4c23)cc1 (configuration not stated)
20: CC(C)OCCCNc1ncc2c(n1)CC(c1ccc(N(C)C)cc1)CC2=O (configuration not stated)
assay / entry,11,12,13,14,15,16,17,18,19,20
Env fusion inh,-10.9,-35.1,-101.9,-51.3,1.9,25.6,.,.,18.1,.
eIF4H FP inh,2.4,14.9,-17.0,4.0,9.2,0.3,3.0,-0.6,.,-2.1
PABP FP inh,-7.7,-9.1,-11.3,3.3,0.4,9.6,2.0,7.4,.,-0.3
Rce1 inhib,i,.,i,i,i,i,i,i,.,i
Yeast UUG start,.,0.7,-13.2,-14.2,.,-8.2,-20.3,-8.7,-9.8,-6.1
MT1-MMP act inh,23.0,0.0,.,9.6,-2.1,3.7,0.1,2.8,-0.4,3.2
MT1-MMP act inh RFP,42.7,0.1,.,5.6,-5.4,-1.8,3.4,-1.9,6.6,1.1
CSC inhib,3.4,-4.2,16.2,-0.9,-10.4,37.3,-9.9,-16.1,-4.7,13.2

# Sorted by the number under Env fusion inh (rising): 3 of the compounds above.
nr | mol | Env fusion inh
12 | CCOC(=O)N1CCN(C(=O)c2cc(COc3ccc(F)cc3F)on2)CC1 | -35.1
10 | COc1ccc(S(=O)(=O)N2CCOC2CNC(=O)C(=O)NCc2cccnc2)cc1OC (configuration not stated) | 4.3
19 | Cc1ccc(C23OCCN2CCn2nc4ccccc4c23)cc1 (configuration not stated) | 18.1

# The list goes on.
21: O=C(C1CCCN(S(=O)(=O)c2cc(Cl)ccc2Cl)C1)N1CCCCCC1 (configuration not stated)
22: OC1(c2ccc(F)cc2)CCN(Cc2ccccc2)C1 (configuration not stated)
23: COc1ccc(C(=O)c2sc(NC(C)C)nc2N)cc1OC
24: CCCCNc1ccc(C(CC(N)=O)NC(=O)c2ccccc2)cc1[N+](=O)[O-] (configuration not stated)
25: CCOc1cc(C(=O)NCC2CCCO2)cc(OCC)c1OCC (configuration not stated)
26: COc1ccc(Cc2nc3ccc(S(=O)(=O)N4CCOCC4)cc3[nH]2)cc1
27: c1ccc(Oc2ncnc3sccc23)cc1
28: CCCCC(=O)Nc1nnc(-c2ccc(OC)cc2)s1
29: CNc1nc(N)c(C(=O)Nc2cc(C)on2)s1
30: CCN(Cc1ccccc1)C(=O)COC(=O)c1cc(=O)[nH]c2ccccc12
assay / entry,21,22,23,24,25,26,27,28,29,30
Env fusion inh,10.0,.,.,-1.3,-22.1,-62.8,-7.2,.,-5.5,6.2
eIF4H FP inh,-4.5,-3.4,8.1,-6.4,-0.5,-0.4,-2.1,5.0,0.0,13.1
PABP FP inh,-0.7,14.9,6.1,7.5,-0.5,13.2,-5.3,-2.8,-2.6,-8.2
Rce1 inhib,i,i,.,i,i,i,i,.,i,i
Yeast UUG start,9.8,-25.9,-21.9,-13.8,14.1,.,-2.8,-4.1,.,.
MT1-MMP act inh,-4.4,1.2,-11.4,17.4,-2.4,19.2,-1.6,3.6,-1.8,-1.0
MT1-MMP act inh RFP,-21.5,7.7,-5.2,-3.2,-4.3,4.6,-1.5,-0.8,1.7,-2.0
CSC inhib,-9.5,5.0,1.5,1.3,-2.8,-15.7,-7.6,7.5,-9.9,-9.0

31: Cc1cc(NC(=O)c2cc(-c3ccc(C)c(C)c3)nc3ccccc23)no1
32: O=C(O)C(=O)/C(=C\c1ccsc1)c1ccc2ccccc2n1
33: Cc1ccc(OCCC(=O)OCC(=O)NCCc2ccc(Cl)cc2)cc1
34: COc1ccc(-c2nnc(-c3cc(OC)c(OC)c(OC)c3)o2)cc1OC
35: O=C(CCS(=O)(=O)c1ccccc1)N(CCCN1CCOCC1)c1nc2ccccc2s1
36: Cc1ccc(NC(=O)CNCc2ccc(Cl)cc2Cl)cc1S(=O)(=O)N(C)C
37: CC(=O)Oc1ccc(N(C(C)=O)S(=O)(=O)c2ccccc2)c2ccccc12
38: OCCCNc1ncnc2c1ncn2[C@H]1CN(Cc2ccc(-c3ccccc3)cc2)C[C@@H](CO)O1
39: COc1ccc(NC(=O)Cc2c(F)c(F)c(F)c(F)c2F)cc1OC
40: C[C@H]1CN([C@@H](C)CO)C(=O)CCCn2cc(nn2)CO[C@@H]1CN(C)C(=O)Nc1cccc2ccccc12
assay / entry,31,32,33,34,35,36,37,38,39,40
Env fusion inh,.,-122.5,.,.,-60.0,6.6,13.5,3.0,1.3,9.3
eIF4H FP inh,-5.6,2.9,.,-16.1,.,3.2,.,.,0.1,.
PABP FP inh,5.5,10.2,.,5.0,.,6.7,.,.,-1.0,.
Rce1 inhib,i,i,i,i,i,i,.,.,i,.
Yeast UUG start,8.1,-17.1,-2.6,-1.6,.,-3.5,-12.2,-8.0,10.7,0.7&6.4&7.8
MT1-MMP act inh,0.4,-8.7,1.1,10.6,-3.4,0.9,1.7,-1.4,2.9,4.6
MT1-MMP act inh RFP,-0.2,0.2,4.3,-2.1,-5.9,-3.5,-3.8,-12.7,-1.1,1.6
CSC inhib,22.9,-8.6,-16.4,-11.3,67.2,-11.0,.,.,15.8,.

41: CCCCCNC(=O)c1ccccc1SC
42: Cc1nc(N(C)Cc2ccccc2)c2c(C)c(C)sc2n1
43: CC[C@]12C(=O)N(C)C[C@H]([C@@H]3C(=O)N(C)C(=O)[C@@H]31)N2C(=O)c1ccc(C(C)(C)C)cc1
44: Nc1nc(N=Nc2ccc(O)cc2)cc(=O)[nH]1
45: COc1ccc(C)cc1S(=O)(=O)NCC(c1ccc2c(c1)OCO2)N1CCOCC1 (configuration not stated)
46: N#Cc1c(-c2ccc(F)cc2)cc(-c2cccs2)nc1SCC(=O)O
47: CC(C(=O)NC1CC(C)(C)NC(C)(C)C1)c1ccc([N+](=O)[O-])cc1 (configuration not stated)
48: CCOc1ccccc1NC(=O)CSc1nc(=O)n(Cc2ccccn2)c2c1CCC2
49: CCOc1ccccc1NC(=O)Nc1ccc(Br)cc1C
50: COc1ccc(NC(=O)CC2SC(=N)N(c3ccccc3)C2=O)c(OC)c1 (configuration not stated)
assay / entry,41,42,43,44,45,46,47,48,49,50
Env fusion inh,.,1.0,-146.3,23.0,14.4,5.7,-40.4,6.5,23.5,3.9
eIF4H FP inh,1.1,17.4,.,.,.,-1.9,-0.7,.,0.6,7.9
PABP FP inh,3.0,11.9,.,.,.,12.6,-8.7,.,-1.1,2.8
Rce1 inhib,i,.,.,.,i,i,i,i,i,i
Yeast UUG start,-15.0,-20.9,11.4,-21.5,-11.7,2.0,.,4.6,-24.3,.
MT1-MMP act inh,-3.3,-3.9,-0.4,-8.7,-3.3,2.4,-1.4,-2.0,2.8,-2.7
MT1-MMP act inh RFP,-0.5,-6.5,4.2,3.2,1.7,1.1,1.1,-3.0,4.7,3.7
CSC inhib,-8.7,4.7,.,.,-7.8,14.0,-5.2,.,6.7,-8.6

51: Cc1nc(Cl)sc1C(=O)Nc1cccc2ccccc12
52: CNC(=O)COC(=O)Cc1ccc(Cl)cc1
53: COc1ccc(OC)c(NC(=O)Cn2c(=O)n(CC(=O)NCc3ccco3)c(=O)c3ccccc32)c1
54: CCOC(=O)C1=C(c2ccccc2)NC(=O)NC1c1cc(OC)c(OC)c(OC)c1 (configuration not stated)
55: CCOCCCN(C(=O)CNC(=O)c1ccco1)C(C(=O)NC1CCCC1)c1cccc(OC)c1 (configuration not stated)
56: Cc1cc(=O)[nH]c(Nc2ccccc2C)n1
57: COCCNC(=O)c1ccccc1NC(=O)c1cc(OC)cc(OC)c1
58: c1ccc(C2OCC3(CO2)COC(c2ccccc2)OC3)cc1 (configuration not stated)
59: OCC1(CCc2ccccc2)CCCN(CCCc2ccccc2)C1 (configuration not stated)
60: COc1ccc(C(CNC(=O)c2cccc(S(=O)(=O)N3CCCC3)c2)N2CCCC2)cc1 (configuration not stated)
61: CC(=O)NC(Cc1ccc(F)cc1)C(=O)N1CCN(C(=O)NCc2ccccc2)CC1 (configuration not stated)
62: Clc1ncc(Cn2cccn2)s1
63: COc1ccc(-c2cc(C)no2)cc1S(=O)(=O)N1CCOc2ccccc21
assay / entry,51,52,53,54,55,56,57,58,59,60,61,62,63
Env fusion inh,.,17.1,-12.6,-1.7,10.7,-9.2,2.7,-317.8,-21.6,2.9,.,-3.3,-5.1
eIF4H FP inh,-5.1,1.0,-5.4,.,-4.7,-6.3,1.4,-3.4,-4.8,.,-9.6,-5.5,0.1
PABP FP inh,1.7,4.1,2.1,.,-1.9,-9.3,8.9,4.6,4.0,.,-11.5,-0.5,-2.0
Rce1 inhib,i,i,i,.,i,i,i,i,i,.,i,i,i
Yeast UUG start,.,-13.3,.,-10.0,6.3,-9.7,.,-28.6,3.7,-7.6,.,.,-19.4
MT1-MMP act inh,-2.1,1.5,-0.1,-3.7,0.6,-0.4,0.9,9.1,-3.8,-4.1,9.7,0.2,-1.1
MT1-MMP act inh RFP,2.1,6.8,0.8,-1.3,0.3,2.8,1.1,3.9,1.5,-2.6,0.0,2.2,-3.6
CSC inhib,10.9,-2.8,-11.7,.,.,13.0,0.6,-10.5,26.4,.,5.2,-4.0,-6.6

# Bioassay records from PubChem.

# This is a subset; the hit share may differ from the screen's.
